RN4220 kill = S. aureus RN4220 growth inhibition; OD600, 16 h; 0.33% of 330,000 active; inhibition, % (test concentration not listed);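 active = z-score of -3 or lower and OD600 up to 0.18 on both plates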;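 note: plate controls were untreated cells for no effect and reference antibiotic for full effect; stock transfer was 100 nL into about 80 µL; one replicate is shown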
Mtb hypoxia inh = inhibitors of hypoxia-regulated fluorescent reporter in Mycobacterium tuberculosis. M. tuberculosis hypoxia-regulated fluorescent reporter, fluorescence. AID 1159583. 0.1% of 300,000 active. fluorescence inhibition, % (no concentration beside the values);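 active = 35 to 45% if threefold the growth effect, above 45% if 1.5-fold the growth effect; inactive = the rest, general growth blockers included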;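 note: wells of about 50 µL received 100 nL stock; 0% = vehicle wells and 100% = reference inhibitor wells; whole bacteria with a GFP reporter of the hypoxia response; strong numbers were not always called active; many hits fall short of the cut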
Sa ugtP lethal = compounds lethal to S. aureus RN4220 ugtP deletion mutant; OD600 growth, 16 h; some inactives read as strong as hits; growth inhibition, % (no concentration beside the values); 0.54% of 330,000 active;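 active = z-score under -3 and OD600 up to 0.15 on both plates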;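 note: plate controls were untreated wells for no effect and antibiotic for full effect; wells of about 80 µL received 100 nL stock; the first replicate is given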
Autofluor counter = flagged as autofluorescent in microsphere protease counterscreen; compound autofluorescence counterscreen, microsphere flow cytometry; hits give high values; fluorescence intensity (test concentration not listed); AID 624483; 3.1% of 360,000 active;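 active = at least 3 SD above the mean of all compounds, about 16000 in these data; inconclusive = too few beads counted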;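 note: 100 nL of 1 mM stock went into each well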
BJeLR viability = kills HRASV12-expressing BJeLR cells. BJeLR (HRASV12) viability, CellTiter-Glo ATP luminescence, 48 h; reference of the scale not given here. AID 1554. 0.17% of 300,000 active. inhibition, % (test concentration not listed);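 active = replicate mean above 50%; inconclusive = above 50% but judged a plate artefact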;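 note: 50 nL library stock added to about 25 µL; numbers are from one replicate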
PrP 5UTR inh = suppresses PrP 5' UTR mRNA reporter expression; cell-based PrP 5' UTR mRNA reporter, plate reader; inhibition, % (no concentration beside the values); 0.35% of 340,000 active;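 active = every replicate at 50% or more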;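 note: 0 = median of the neutral control wells; tested in H4 reporter cells; numbers are from one replicate; inactives centre near -14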
Mtb hypoxia inh growth = also measured in Mtb hypoxia inh; calls as there; growth inhibition, %; measured here: M. tuberculosis growth (absorbance);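 0% = vehicle and 100% = reference antibiotic; read after six days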
Numbers without * were called inactive; ? = inconclusive; · = not tested or not shown; & = joins results of further samples.

no.	structure	Sa ugtP lethal	RN4220 kill	BJeLR viability	Mtb hypoxia inh	Mtb hypoxia inh growth	Autofluor counter	PrP 5UTR inh
1	CC(=O)NC(=S)Nc1ccc(NC(=S)NC(=O)/C=C/c2ccco2)cc1	78	2.6	13	-7	3	3638	-13
2	CN(C)/C=N/c1cc(=O)[nH]c(=O)n1Cc1ccccc1	·	·	16	·	·	4537	-7
3	CCN(CC)c1cc(CS(=O)c2ccccc2)nc(-c2ccccc2)n1 (configuration not stated)	3	-3.1	-3	·	·	2289	-6
4	O=C(CSc1ccc([N+](=O)[O-])cn1)Nc1ccc2[nH]c(=O)[nH]c2c1	0	1.3	-12	0	-10	3296	-10
5	O=C(CCSc1nc(-c2ccco2)cc(C(F)(F)F)n1)NCc1cccs1	6	1.6	-1	2	0	3186	-15
6	CC(C)c1cc(C(=O)O)on1	2	1.3	5	1	-8	?	-18
7	O=c1oc(-c2ccco2)nc2sc3c(c12)CCCC3	-2	1.6	5	13	2	7369	-27
8	COc1ccc(CC(=O)OCN2C(=O)c3ccccc3C2=O)cc1	3	3.9	-4	·	·	2684	2
9	COc1cc(C(=O)OCC(=O)NC(N)=O)cc(CN2C(=O)c3ccccc3C2=O)c1OC	4	2.0	-3	2	-11	2885	0
10	O=C(Cc1ccc(F)cc1)NCCc1ccc(F)cc1	-3	-2.1	10	·	·	2673	-34
11	CC1=C(C#N)CCC(=O)N1Cc1ccc(C)cc1	-6	2.6	6	·	·	4367	-16
12	CCOc1ccc(NS(=O)(=O)c2ccc3c(c2)oc(=O)n3C)cc1	-1	4.0	5	-3	7	5066	-21
13	O=C(Nc1cccnc1)c1cccc(S(=O)(=O)N2CCCCC2)c1	2	4.6	3	-3	9	4895	-21
14	O=C(Cn1ccc2ccccc21)Nc1ccc2c(c1)OCO2	-4	2.4	3	12	9	3492	-19
15	Nc1ccc(C(=O)N/N=C/c2cn(Cc3ccccc3F)c3ccccc23)cc1	·	·	5	·	·	5804	11
16	Cc1nc2ccc(NS(=O)(=O)c3ccc(C)c(C)c3)cc2s1	-6	0.4	-10	3	7	3345	-9
17	CCN1CC2C3C(=O)N(C)C(=O)C3[C@](C)(C1=O)N2C(=O)c1ccc(Br)cc1 (some centres not stated)	1	4.4	·	19	10	·	·
18	O=C(O)c1ccccc1C(=O)NCC(O)COCC1CC=CCC1 (configuration not stated)	0	4.2	-6	13	7	12898	-26
19	Cc1ccc(S(=O)(=O)NNC(=O)c2cnn(-c3ccc(Cl)cc3)c2C(F)(F)F)cc1	13	-1.2	5	14	-1	5699	-23
20	C[C@@H]1[C@H]2[C@@H]3CC[C@@H](C3)[C@H]2CN[C@H]1c1cn(Cc2ccccc2)c2ccccc12	-22	-8.3	·	2	-3	4309	-25
21	CC1COC(=O)C(NC(=O)OCC2c3ccccc3-c3ccccc32)CC=CCC(CC(=O)NC(CO)Cc2ccccc2)C(=O)N1 (configuration not stated)	2&-12	4.5&2.9	·	-8&0	2&13	·	·
22	CCc1nnc(SCC(=O)Nc2ccc3ccccc3c2)n1N	0	1.8	·	-2	-1	3954	-21
23	COc1ccc(-c2csc(NC(=O)/C(N=Nc3ccccc3)=C(\C)O)n2)cc1	-19	1.7	0	3	1	·	·
24	O=S(=O)(c1ccc(NC(=S)NN=Cc2cccc(Oc3ccccc3)c2)cc1)N1CCOCC1	18	2.2	·	6	3	·	·
25	O=C(/C=C/c1ccccc1)Nc1cccnc1	-3	2.2	4	1	3	5144	-32
26	O=C(NC(c1ccccc1)c1ccccc1)c1ccc(CO)cc1	10	2.5	11	-8	1	4015	-18
27	Cn1cnnc1SCC(=O)NN=Cc1ccc(OCC(N)=O)cc1	5	2.6	·	-4	11	·	·
28	O=C(CSc1n[nH]c(-c2ccccc2O)n1)N1CCOCC1	2	4.2	-3	3	4	4813	7
29	Cc1cc(Br)c(NC(=O)COC(=O)C2CCCCC2)c(Br)c1	-3	1.7	·	2	0	6797	-25
30	CNS(=O)(=O)c1cccc(C(=O)OCC(=O)C23CC4CC(CC(C4)C2)C3)c1	2	-3.4	2	8	8	2420	-13
31	O=C(/C=C/c1ccccc1)OCCCCN=C1NS(=O)(=O)c2ccccc21	-2	0.3	-9	-5	3	3855	-15
32	CN(C)C(=O)C1Cc2ccccc2CN1S(=O)(=O)c1ccc(F)cc1 (configuration not stated)	9	5.8	-10	4	-10	3204	-20
33	O=[N+]([O-])c1ccccc1NCCNS(=O)(=O)c1ccc(Cl)cc1	-16	7.8	19	5	1	2208	-8
34	CCOC(=O)c1c(CSc2ccccc2)n(C)c2cc(Br)c(O)c(CN(C)C)c12	5	1.8	0	12	6	4960	-21
35	Oc1cc(O)cc(-c2cc3ccc(O)cc3o2)c1	3	5.2	-1	·	·	5776	2
36	COc1cccc(N2CC(C(=O)Nc3nnc(SCC(=O)NC4CCCC4)s3)CC2=O)c1 (configuration not stated)	11	0.3	8	4	-2	5973	-7
37	COc1ccc(CCNC(=O)COC(=O)C2CC2)cc1OC	-4	0.3	·	3	22	3738	-4
38	CC1=C(C(=O)OCCBr)C(c2cccc3ccccc23)NC(=O)N1 (configuration not stated)	3	2.2	1	13	2	3678	-12
39	Cc1nc2ccc(P(=O)(O)O)cc2s1	0	0.9	1	4	3	·	·
40	CCOc1cc(C2C(C(=O)c3ccccc3)=C(C(=O)OC)Nc3nnnn32)ccc1O (configuration not stated)	9	5.4	4	·	·	2306	-5
41	Nc1nnc(SCC(=O)Nc2cc(C(F)(F)F)ccc2N2CCOCC2)s1	0	4.1	-1	7	7	7911	-5
42	O=S1(=O)c2ccccc2C(CCO)N1Cc1ccccc1 (configuration not stated)	-2	9.9	1	14	4	2920	-20
43	Cc1nn(Cc2ccccc2)c(C)c1C(=O)NCCCN1CCCC1=O	15	4.7	·	10	2	3681	-26
44	CN(C)c1ccc(/C=N/N2C(=S)SC(C)(C)C2N(O)C(=O)Nc2ccc([N+](=O)[O-])cc2)cc1 (configuration not stated)	·	·	-1	·	·	4778	-18
45	COc1cc(C=C2C(=O)OC(C)(C)OC2=O)cc(Cl)c1OCC(=O)Nc1ccccc1	3	2.6	6	6	10	2048	3
46	COc1cccc(/C=C2\CCC(C3CCCC3)C2=O)c1 (configuration not stated)	2	4.6	-10	20	9	3120	-30
47	Nn1c(SCc2ccccc2F)nnc1-c1cccnc1	0	2.8	3	1	8	5412	·
48	COC(=O)C1=C(c2ccc(F)cc2OCc2ccccc2)CC2CCC1N2C(=O)NCc1ccc(C(C)(C)C)cc1 (configuration not stated)	14	-5.2	·	8	0	·	·
49	Nc1nc(SCC(=O)OCc2ccccc2)[nH]c(=O)c1NC(=O)c1ccco1	19	20	-4	3	7	5902	-11
50	CC(=O)c1ccc(N(C(=O)CS(=O)CC(=O)Nc2ccc(F)cc2)C(C(=O)NC2CCCCC2)c2cccs2)cc1 (configuration not stated)	-2	-1.2	2	10	0	2562	-6
51	COc1ccc(CCN2C(=O)CSC2c2ccc(OC)c(OC)c2)cc1OC (configuration not stated)	-8	-1.4	-2	1	6	1976	6
52	N#Cc1nc(-c2ccco2)oc1N1CCc2ccccc2C1	-11	9.7	2	7	3	8511	-10
53	COc1cc(Br)cc(C(c2c(C)n(C)n(-c3ccccc3)c2=O)c2c(C)n(C)n(-c3ccccc3)c2=O)c1O	4	0.9	-9	0	-6	4329	·
54	CC1CCCC(NC(=O)CNC(=O)c2cccs2)C1C (configuration not stated)	6	0.4	7	-1	7	5612	-3
55	CCn1c(SCC(=O)Nc2ccc3c(c2)OCCO3)nnc1-c1c[nH]c2ccccc12	-8	-3.3	-17	1	-2	6160	-30
56	COCCNC(=O)c1cc2nc(-c3ccc(F)cc3)cc(C(F)(F)F)n2n1	5	3.1	-6	3	0	4244	-20
57	COc1ccc(C)cc1S(=O)(=O)NC1CCCCC1	5	7.8	4	11	2	20209*	-8
58	CC(=O)Nc1nc(C)c(Oc2ccc(Cl)cc2)c(=O)[nH]1	-6	-6.2	8	-1	-5	4207	-4
59	N#Cc1ccc(CSc2nnc(-c3cccs3)n2-c2ccccc2)cc1	-1	17	9	10	9	9086	-16
60	COC(=O)c1ccc(CNC(=O)Cn2cnc3c(NCc4ccccc4)ncnc32)cc1	-3	-1.2	·	-9	4	3475	-4

(continued)
no.	structure	Sa ugtP lethal	RN4220 kill	BJeLR viability	Mtb hypoxia inh	Mtb hypoxia inh growth	Autofluor counter	PrP 5UTR inh
61	COc1ccc(S(=O)(=O)N2CCCC2)c(Cl)c1Cl	-1	7.8	7	10	3	3631	6
62	COc1cc(/C=C/C(=O)Nc2nnc(CC(C)C)s2)cc(OC)c1OC	-4	4.2	0	4	2	2243	-22
63	CCN(c1cccc(C)c1)S(=O)(=O)c1cn(CC(=O)OC)c2ccc([N+](=O)[O-])cc12	4	-0.1	4	-3	4	5440	-13
64	CC(C)NC(=O)CN1C(=O)C(C)(C)Oc2ccc(C(=O)NC3CCCCC3)cc21	-11	3.3	-3	-5	6	4096	-21
65	CCOC(=O)c1sc(-c2ccc(Cl)cc2)nc1O	-7	20	3	4	13	3791	-10
66	Cc1cccc(N2CC(C)Cn3c2nc2c3c(=O)[nH]c(=O)n2C)c1 (configuration not stated)	5	5.3	0	7	5	3585	1
67	CCOC(=O)CSc1nc2ccccc2c(=O)n1CC1CCC(C(=O)NCc2ccco2)CC1 (configuration not stated)	-10	6.9	0	-2	7	10170	-18
68	Cc1cc(C)c(NC(=O)C2CCN(c3cnccn3)CC2)c(C)c1	5	8.7	-2	4	5	3394	-23
69	COc1ccc(N/C(=N\c2nc(C)cc(C)n2)NC(C)=O)cc1OC	-10	-3.8	3	-5	2	3609	0
70	Cc1ccc(Cl)cc1NC(=O)C1CCN(S(C)(=O)=O)CC1	0	1.0	10	-3	1	3598	-11
71	Cc1cc(OCc2ccc(C(=O)NN=C3CCCC3)cc2)ccc1Cl	0	4.6	3	-3	4	2008	-11

Copied from above: nos. 59–71
no.	structure	Sa ugtP lethal	RN4220 kill	BJeLR viability	Mtb hypoxia inh	Mtb hypoxia inh growth	Autofluor counter	PrP 5UTR inh
59	N#Cc1ccc(CSc2nnc(-c3cccs3)n2-c2ccccc2)cc1	-1	17	9	10	9	9086	-16
60	COC(=O)c1ccc(CNC(=O)Cn2cnc3c(NCc4ccccc4)ncnc32)cc1	-3	-1.2	·	-9	4	3475	-4
61	COc1ccc(S(=O)(=O)N2CCCC2)c(Cl)c1Cl	-1	7.8	7	10	3	3631	6
62	COc1cc(/C=C/C(=O)Nc2nnc(CC(C)C)s2)cc(OC)c1OC	-4	4.2	0	4	2	2243	-22
63	CCN(c1cccc(C)c1)S(=O)(=O)c1cn(CC(=O)OC)c2ccc([N+](=O)[O-])cc12	4	-0.1	4	-3	4	5440	-13
64	CC(C)NC(=O)CN1C(=O)C(C)(C)Oc2ccc(C(=O)NC3CCCCC3)cc21	-11	3.3	-3	-5	6	4096	-21
65	CCOC(=O)c1sc(-c2ccc(Cl)cc2)nc1O	-7	20	3	4	13	3791	-10
66	Cc1cccc(N2CC(C)Cn3c2nc2c3c(=O)[nH]c(=O)n2C)c1 (configuration not stated)	5	5.3	0	7	5	3585	1
67	CCOC(=O)CSc1nc2ccccc2c(=O)n1CC1CCC(C(=O)NCc2ccco2)CC1 (configuration not stated)	-10	6.9	0	-2	7	10170	-18
68	Cc1cc(C)c(NC(=O)C2CCN(c3cnccn3)CC2)c(C)c1	5	8.7	-2	4	5	3394	-23
69	COc1ccc(N/C(=N\c2nc(C)cc(C)n2)NC(C)=O)cc1OC	-10	-3.8	3	-5	2	3609	0
70	Cc1ccc(Cl)cc1NC(=O)C1CCN(S(C)(=O)=O)CC1	0	1.0	10	-3	1	3598	-11
71	Cc1cc(OCc2ccc(C(=O)NN=C3CCCC3)cc2)ccc1Cl	0	4.6	3	-3	4	2008	-11

Compound activity from PubChem.

Hits appear at their usual frequency; overall some 4% were active at least once.
